# Compound activity from PubChem.
# CtBP-E1A inh: qHTS Assay for Inhibitors of the CtBP/E1A Interaction | AlphaScreen GST-E1A/His-CtBP binding, 1536-well; active compounds read low; control for the full effect not named in the record | activity change, % (test concentration not listed) | hit rate 0.49% among 340,000 | CtBP / adenovirus E1A interaction (AlphaScreen); in the data active means activity change below about -65%; inconclusive means about -30% to -65%; inactive means above about -30%; also: % is scaled to controls: 0 for no effect and ±100 for the full control effect
#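 AlphaScreen with 125 nM GST-E1A and 125 nM His-CtBP (5X stocks) in Tris pH 8.0, 300 mM NaCl, BSA, Tween 20, TCEP. Compounds preincubated 2 h at 37 deg C, then glutathione donor/nickel acceptor beads added for 1 h at 37 deg C in dark.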
# D2 PAM: Beta-Arrestin HTS for Positive Allosteric Modulators of the Human D2 Dopamine Receptor: Potentiators; AID 624464, 2012; D(2) dopamine receptor (Homo sapiens), P14416; DiscoveRx D2 beta-arrestin cells, luminescence, 90 min; 100% = 57 uM dopamine signal; hit rate 0.23% among 360,000; potentiation, % (no concentration beside the values); active = potentiation of 50% or more; inconclusive = 30% to 50%; inactive = 30% or less;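 also: compound concentration not given in the record; tested on top of an EC20 dose of dopamine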
#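 D2 cells co-treated with compound plus 50 nM dopamine (EC20) for 90 min at 37 deg C to detect potentiation. Beta-arrestin recruitment was read as enzyme-fragment luminescence after 1 h at ambient temperature. Full response was set by 57 uM dopamine.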
# TRPML1 ag: qHTS for Agonists of the Human Mucolipin Transient Receptor Potential 1 (TRPML1); Mucolipin-1 (Homo sapiens), Q9GZU1; TRPML1-expressing cells, Ca2+ dye fluorescence, FDSS; host cell line not named in the record; reference of the full effect not given here; activation, % (no concentration beside the values); hit rate 0.12% among 410,000; in the data active = activation above about 50%; inconclusive = about 30% to 50%; inactive = below about 30%; also: 0% is about no effect; the text of the record puts the active cut at 80%
#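 In this qHTS format, compounds were pin-transferred onto Ca8-dye-loaded TRPML1-DL cells induced with Tet overnight, and intracellular Ca2+ fluorescence was recorded kinetically for 110 s after a 10 s baseline. A subsequent 4uM final 54-4 (EC80) addition followed by a second 110 s read served as the antagonist phase.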
# TRPML1 blocker: qHTS for Inhibitors of the Human Mucolipin Transient Receptor Potential 1 (TRPML1); Mucolipin-1 (Homo sapiens), Q9GZU1; TRPML1-inducible cells, Ca2+ dye fluorescence, FDSS; active compounds read low; inhibition of EC80 agonist-evoked calcium signal; activity change, negative = inhibition, % (test concentration not listed); hit rate 0.02% among 390,000; in the data active means activity change below about -50%; inconclusive means about -30% to -50%; inactive means above about -30%;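 also: stimulus is agonist 54-4 at its EC80 concentration; % is scaled to controls: 0 for no effect and ±100 for the full control effect; compound concentration not given in the record; the text of the record puts the active cut at -80%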
#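 TRPML1-DL cells, Tet-induced overnight (~16 h, 37 °C) at 1,500 cells/well, were loaded with Ca8 no-wash dye plus quencher for 45-90 min at room temperature. Compounds were pinned during FDSS kinetic reading; agonist 54-4 at EC80 (4 uM final) then added.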
# TRPV1 PAM: HTS Assay for Compounds that Act as Potentiators of the Vanilloid Receptor 1; hit rate 0.02% among 320,000; TRPV1-expressing cells, Fluo-8 calcium influx, capsaicin EC20 potentiation; host cell line not named in the record; control for the full effect not named in the record; AID 540277, 2011; potentiation, % at 8.33 µM; active means potentiation above 80%; inconclusive means 30% to 80%; inactive means below 30%; also: 0% is about no effect
# Target sequence (Q8NER1 whole entry, looked up): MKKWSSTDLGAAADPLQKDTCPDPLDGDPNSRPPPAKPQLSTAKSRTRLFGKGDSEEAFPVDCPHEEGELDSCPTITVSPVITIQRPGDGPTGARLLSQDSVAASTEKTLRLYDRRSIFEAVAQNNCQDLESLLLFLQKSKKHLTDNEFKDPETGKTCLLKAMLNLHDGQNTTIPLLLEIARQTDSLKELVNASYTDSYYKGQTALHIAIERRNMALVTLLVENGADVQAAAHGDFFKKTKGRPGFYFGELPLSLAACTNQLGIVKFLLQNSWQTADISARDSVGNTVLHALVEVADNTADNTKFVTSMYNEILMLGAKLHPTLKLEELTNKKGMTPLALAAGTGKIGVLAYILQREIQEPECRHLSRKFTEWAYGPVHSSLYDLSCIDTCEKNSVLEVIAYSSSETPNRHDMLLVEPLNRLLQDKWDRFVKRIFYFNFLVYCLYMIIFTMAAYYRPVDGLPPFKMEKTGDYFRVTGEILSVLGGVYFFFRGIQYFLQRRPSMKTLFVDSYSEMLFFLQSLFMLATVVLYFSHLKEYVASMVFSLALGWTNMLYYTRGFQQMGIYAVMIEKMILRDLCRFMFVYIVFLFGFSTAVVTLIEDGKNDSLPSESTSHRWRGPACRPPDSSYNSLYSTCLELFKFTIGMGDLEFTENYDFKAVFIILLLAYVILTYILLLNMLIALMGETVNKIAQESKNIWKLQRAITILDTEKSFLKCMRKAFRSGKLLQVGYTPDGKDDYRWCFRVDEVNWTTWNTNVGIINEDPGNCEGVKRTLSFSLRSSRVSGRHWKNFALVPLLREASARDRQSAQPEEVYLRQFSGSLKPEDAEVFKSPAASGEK
#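 TRPV1-expressing cells were cultured overnight at 35.5C and loaded with Fluo-8 calcium dye for 40 to 90 min at room temperature. After a 10 s baseline, compound was added and calcium influx was read kinetically for 3 min (ex 480/em 520 nm).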
# Six1-Eya2 inh: qHTS Assay for Inhibitors of the Six1/Eya2 Interaction; activity change, % (concentration not given with the values); hit rate 0.56% among 360,000; AlphaScreen GST-Six1/His-Eya2 binding, biochemical; active compounds read low; control for the full effect not named in the record; in the data active = activity change below about -65%; inconclusive = about -30% to -65%; inactive = above about -30%; also: % is scaled to controls: 0 for no effect and ±100 for the full control effect
#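 AlphaScreen luminescence read after one hour at 37 °C in darkness. Pin-transferred compounds met GST-Six1 and His-Eya2 protein (5X stock 250 nM/500 nM) plus glutathione donor and Ni-chelate acceptor beads (5X, 50 ug/mL).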
# The depositor's hits bear a star; ? = inconclusive; . = not tested or not shown; & = joins results of further samples. Compounds were not picked by outcome. Share with any hit: about 0.95%.
# Below each SMILES – TRPV1 PAM, TRPML1 ag, D2 PAM, Six1-Eya2 inh, CtBP-E1A inh, TRPML1 blocker
- COc1ccc(N2CCN(Cc3nc4c(c(=O)n(C)c(=O)n4C)n3C(C)C(C)=O)CC2)cc1 (stereo not drawn)
→ ., 0.5, 1, 0, 6, 5
- CCC(=O)c1ccc(OCC(=O)Nc2ccccc2N2CCOCC2)cc1
→ -1, 1.8, -1, -2, 5, 15
- COc1ccc(/C=C/C(=O)O)cc1S(=O)(=O)N1CCCc2ccccc21
→ 3, 0.9, -11, -1, 5, -13
- COc1ccc2c(=O)c(-c3ccc4c(c3)OCO4)coc2c1
→ -9, 0.1, -10, 8, ., 29
- COc1ccc(CNC(=O)CCCn2c(SCC#N)nc3cc4c(cc3c2=O)OCO4)cc1
→ ., -1.2, 1, 3, 0, 9
- CS(=O)(=O)N(CCc1ccccc1)CC(=O)NCc1ccncc1
→ 4, 0.7, 12, 5, 6, -4
- CC1=C(C#N)C(NC(=O)c2ccco2)(C(F)(F)F)C(=O)N1 (stereo not drawn)
→ 3, 3.2, -7, 1, -1, 2
- Cc1cc(C)c(NC(=O)c2ccccc2N(C)S(C)(=O)=O)c(C)c1
→ -3, -0.4, -7, 3, 9, 17
- CCOC(=O)C1=C(C)NC(=O)NC1c1ccccc1OCc1c(F)cccc1Cl (stereo not drawn)
→ 4, 1.4, 1, 8, 21, -3
- CN1CCN(CC(=O)NC(=O)NC2CCCCC2)CC1
→ -11, 0.3, -1, 0, ., -2
- C[C@@H]1CN([C@@H](C)CO)C(=O)CCCn2nncc2CO[C@@H]1CN(C)C(=O)Cc1ccccc1
→ ., -0.3, -1, -6, -4, -5
- O=C1c2cccc3cccc(c23)C(=O)N1CCc1ccccc1
→ 15, -0.2, 5, -2, 5, 41
- CC(C)(C)OC(=O)N1Cc2ccccc2C[C@H]1C(=O)NCC(=O)NC1CCCCC1
→ -2, -1.1, 6, 0, 2, 32
- CCNS(=O)(=O)c1cc(OC)c(Cl)cc1OC
→ 14, 0.6, -2, 8, 3, -20
- O=C(Nc1ccn(CCCNCCCN2CCCC2=O)c(=O)n1)OCc1ccccc1
→ ., 1.3, 3, 16, 28, -26
- CC(C)(CNC(=O)Cc1ccc(Cl)cc1Cl)N1CCOCC1
→ -1, 1.9, -6, 5, 6, 17
- C/C(Cl)=C/Cn1c(NCCCn2ccnc2)nc2c1c(=O)[nH]c(=O)n2C
→ 1, -1.0, -28, -1, 2, 1
- Nc1nnn(CC(=O)N/N=C/c2cn[nH]c2-c2ccccc2)n1
→ 0, 1.1, -8, -26, -25, 1
- CCOC(=O)/C=C/c1ccc(C(F)(F)F)cc1S(=O)(=O)NC(C)(C)C
→ ., 1.7&0.6, -4, -1, ., 24
- CCc1ccc(C(=O)NNC(=O)c2ccc(=O)n(C)n2)cc1
→ ?, -0.3, -2, 0, 1, 1
- CCC(C)NC(=O)Cn1c(COc2ccc(Cl)cc2Cl)nc2ccccc21 (stereo not drawn)
→ 5, -0.3, -19, -5, 0, 11
- CSCCC(NC(=O)COc1ccccc1)C(=O)NCc1cccs1 (stereo not drawn)
→ -12, 0.8, -12, -1, -22, -4
- Cc1ccnc(NS(=O)(=O)c2ccc(NC(=O)C3CC3)cc2)n1
→ 3, 0.0, 3, -9, 0, 12
- COc1ccc(C(O)c2ncc(C(F)(F)F)cc2Cl)cc1 (stereo not drawn)
→ 12, 1.4, -1, 11, 5, 5
- COC(=O)c1sccc1NC(=O)c1ccc(C(C)C)cc1
→ 4, 4.0, -7, 34, 23, 11
- S=C(NCCN1CCCCC1)Nc1ccccc1
→ 9, 0.3, -12, -1, ., -6
- Nc1cc(=O)[nH]c(SCC(=O)N2N=C(c3ccc4ccccc4c3)CC2c2ccccc2)n1 (stereo not drawn)
→ 2, 0.8, -1, -5, -11, -16
- CCCCn1c(N)c(N(CCOC)C(=O)c2cccc(S(=O)(=O)N(C)c3ccc(C)cc3)c2)c(=O)[nH]c1=O
→ -4, 0.4, 9, 9, 4, -3
- COc1ccccc1NC(=O)CN1CCC(n2c(C)nc3cc(F)ccc32)CC1
→ 0, 0.8, -4, 5, -8, 18
- O=C(Oc1ccc(/C=N/O)cc1)c1ccccc1
→ 12, 0.5, -4, -6, 4, -4

# Continued; the last two above are carried over.
# Below each SMILES – TRPV1 PAM, TRPML1 ag, D2 PAM, Six1-Eya2 inh, CtBP-E1A inh, TRPML1 blocker
- COc1ccccc1NC(=O)CN1CCC(n2c(C)nc3cc(F)ccc32)CC1
→ 0, 0.8, -4, 5, -8, 18
- O=C(Oc1ccc(/C=N/O)cc1)c1ccccc1
→ 12, 0.5, -4, -6, 4, -4
- CC1=C(C(=O)OC(C)C)C(c2cccs2)C(C(=O)OC(C)C)=C(C)N1
→ -12, 0.4, -6, 8, 6, 7
- CCOc1ccc(NC(=O)CN(C)C(=O)CSC(C)C(=O)Nc2cc(C)on2)cc1OCC (stereo not drawn)
→ 4, -0.5, 6, 0, -5, -16
- O=C(NCc1cccs1)C1CCN(S(=O)(=O)c2ccc3c(c2)OCCO3)CC1
→ 4, 0.2, 0, 1, -5, -4
- Cc1ccc(Nc2nnc(SC(C)C(=O)NCC3CCCO3)s2)cc1 (stereo not drawn)
→ ., 1.2, -13, ?, 1, 5
- COCCCNC(=O)Cn1nnc(-c2ccccc2NC(=O)c2ccccc2F)n1
→ -8, 0.0, -6, -3, 7, 3
- Cc1nnc(SC(C)C(=O)Nc2ccc3ccccc3c2)[nH]c1=O (stereo not drawn)
→ 7, 0.1, 2, -1, 0, 25
- COc1cc(C)nc(Oc2ccc(OCCOc3ccccc3)nn2)n1
→ -6, 0.1, -1, 9, 7, 13
- CCOC(=O)Nc1cccc(OCC(=O)Nc2ccc3c(c2)CCC3)c1
→ ., 0.0, -10, -3, ., -1
- O=C(NC1CCCCC1)NC1(C(=O)N2CCN3CCCC3C2)CCCCC1 (stereo not drawn)
→ 9, -0.3, -23, -1, -2, -3
- Cn1nc(C(F)(F)F)c(-c2ccc(F)cc2)c1NC(=O)Nc1ccc(F)cc1
→ ., 0.7, -3, 0, 2, 30
- CCc1ccc(OCCNC(=O)c2ccccc2SCc2ccccc2)cc1
→ -3, 2.5, 4, 17, 32, 14
- COc1ccc2[nH]cc(CCNS(=O)(=O)c3ccccc3)c2c1
→ -16, 1.2, -2, -3, -3, 8
- Nc1cc(OC(=O)c2ccccc2Br)nn1S(=O)(=O)c1ccccc1
→ 1, 4.2, -5, 0, -1, 10
- Cc1ccc(C2N3CC4([N+](=O)[O-])CN2CC([N+](=O)[O-])(C3)C4(C)C)cc1 (stereo not drawn)
→ -23, 0.8, -3, 2, ., 15
- Cc1ccc(NC(=S)N(CCCN2CCOCC2)Cc2cccs2)c(C)c1
→ -12, -0.3, -9, 1, 0, -3
- CCC(CO)Oc1cc(NCc2ccc(OC)cc2)c2ncn(C(C)C)c2c1 (stereo not drawn)
→ -9, -0.9, -9, -17, -12, 29
- CCOc1ncccc1C(=O)NCc1ccccc1Cl
→ 2, -0.3, -3, -1, -7, 6
- CC1(C)CC(=O)C=C(c2n[nH]nc2C2CCCCC2)C1
→ ., -0.3, 2, 2, 0, -1
- COc1ccc(C(=O)CSc2ncn[nH]2)cc1OC
→ -4, 0.7, 5, 0, -2, -2
- O=C(NCC1CC1)C1Cc2c(-c3ccc(Cl)cc3)ccnc2O1 (stereo not drawn)
→ ., 0.9, -12, 9, -2, 7
- COc1ccc(NC(=O)CCNC(=O)Cn2ccc3ccccc3c2=O)cc1Cl
→ 2, -0.6, -4, -6, -20, 5
- CCOc1ccccc1C(=O)NC1CCN(Cc2nnnn2C2CCCC2)CC1
→ -4, 0.4, -14, 0, 2, -1
- Cc1cc(C)n2nc(CC(=O)NNC(=O)c3ccc(N(C)C)cc3)nc2n1
→ ?, 0.1, -8, -1, -16, 11
- COC(=O)c1cc(OC)nc2c1c(=O)n(C)c(=O)n2C
→ 7, 0.4, -7, 7, -2, 1
- CCc1ccc(NC(=O)C(=O)NCC2CCCO2)cc1 (stereo not drawn)
→ -28, 0.5, -36, 5, ., -4
- O=C(COC(=O)CSc1nnc(-c2ccc(Cl)cc2)o1)NCc1ccc2c(c1)OCO2
→ -6, 0.5, -4, -1, 4, 41
- COc1ccccc1NC(=O)Nc1nnc([C@@H]2C[C@H](O)[C@@H](CO)O2)s1
→ ., 0.0, -6, -1, 5, .
- CCOC(=O)NC1(C(F)(F)F)C(=O)N(Cc2ccccc2)C2=C1C(=O)CC(C)(C)C2 (stereo not drawn)
→ -18, -0.1, 3, 2, 1, -8
- Cc1ccccc1Nc1nnc(SCC(=O)Nc2ccccc2[N+](=O)[O-])s1
→ 30, -0.1, -5, -11, -20, -16
- Cc1[nH]n(-c2ccccc2)c(=O)c1C(c1ccccc1C(=O)O)c1c(C)[nH]n(-c2ccccc2)c1=O
→ 0, 0.5, -21, 2, 11, 17

# Reformatted with each value named: entries from further up
Compound: COC(=O)c1cc(OC)nc2c1c(=O)n(C)c(=O)n2C
  TRPV1 PAM = 7
  TRPML1 ag = 0.4
  D2 PAM = -7
  Six1-Eya2 inh = 7
  CtBP-E1A inh = -2
  TRPML1 blocker = 1

Compound: CCc1ccc(NC(=O)C(=O)NCC2CCCO2)cc1 (stereo not drawn)
  TRPV1 PAM = -28
  TRPML1 ag = 0.5
  D2 PAM = -36
  Six1-Eya2 inh = 5
  CtBP-E1A inh = .
  TRPML1 blocker = -4

Compound: O=C(COC(=O)CSc1nnc(-c2ccc(Cl)cc2)o1)NCc1ccc2c(c1)OCO2
  TRPV1 PAM = -6
  TRPML1 ag = 0.5
  D2 PAM = -4
  Six1-Eya2 inh = -1
  CtBP-E1A inh = 4
  TRPML1 blocker = 41

Compound: COc1ccccc1NC(=O)Nc1nnc([C@@H]2C[C@H](O)[C@@H](CO)O2)s1
  TRPV1 PAM = .
  TRPML1 ag = 0.0
  D2 PAM = -6
  Six1-Eya2 inh = -1
  CtBP-E1A inh = 5
  TRPML1 blocker = .

# The results go on.
# Below each SMILES – TRPV1 PAM, TRPML1 ag, D2 PAM, Six1-Eya2 inh, CtBP-E1A inh, TRPML1 blocker
- Cc1nn(Cc2ccc(C(=O)Nc3nccs3)cc2)c(C)c1Cl
→ -4, 1.4, 3, -13, -7, 2
- CCN1CCN(c2ccc(N=Cc3ccc(O)cc3O)cc2)CC1
→ 2, 1.5, -10, -8, 6, 23
- COc1cccc(OC)c1CC1SC(=O)NC1=O (stereo not drawn)
→ 5, 0.0, -5, 4, -9, 8
- NNC(=O)c1ccc(Cn2cccn2)o1
→ -23, 1.8, -4, 24, 0, 10
- Cn1ncc(Cl)c1C(=O)N1CCc2ccccc21
→ -3, 0.7, -4, 2, 3, -4
